PINK1 modulator = A Quantitative High throughput Screen to Identify Chemical Modulators of PINK1 Expression. 410,000 tested, 0.2% active. Potency, µM (titrated, usually from 76.6 µM), for inactives: at the top dose activation (PINK1 increase), usual class: activators. PINK1 immunofluorescence, high-content cytometry, 24 h; active = well fitted activation curve with a large enough effect; inconclusive = small, poorly fitted or top-dose-only effect; inactive = flat fitted curve, though single readings scatter; cell line not stated here;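 further: % of control where 0% means no effect; nearly all actives have a fitted effect of over 65% in size; a mitochondrial uncoupler was the plate control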
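Compound titrations (5 concentrations, 24 h) on a stable cell line; DMSO and CCCP controls. Endpoint: fixed-cell PINK1 immunofluorescence with mitochondrial, cell and nuclear markers, scanned by microplate cytometer.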
ClpP mod = qHTS Assay for Activators of ClpP; ATP-dependent Clp protease proteolytic subunit (Bacillus subtilis (strain 168)), P80244; Potency, µM (titrated, usually from 57.5 µM), inactives show top-dose activity change, negative = active; 340,000 tested, 1.9% active; purified B. subtilis ClpP, FRET peptide cleavage, 20 min; active = well fitted falling curve with a large enough effect; inconclusive = small, poorly fitted or top-dose-only effect; inactive = no such curve, though single readings can be large or run the other way; further: the source files actives as falling curves though it sought activators and does not explain the sign; nearly all actives have a fitted effect of over 65% in size; many hits overshoot -100%
Target sequence (P80244 whole entry, looked up): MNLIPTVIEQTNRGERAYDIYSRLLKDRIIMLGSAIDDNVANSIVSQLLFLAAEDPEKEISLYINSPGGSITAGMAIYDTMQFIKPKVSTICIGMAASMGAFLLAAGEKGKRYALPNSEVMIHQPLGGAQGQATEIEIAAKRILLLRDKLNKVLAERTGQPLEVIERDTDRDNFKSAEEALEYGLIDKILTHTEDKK
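Purified B. subtilis ClpP, 10 microg/mL final in Tris/HCl pH8 with KCl, BSA, glycerol and Tween-20, cleaved an Abz/nitrotyrosine-quenched decapeptide. Fluorescence (ex 320, em 430) was read at 0 and 20 min at room temperature. Delta was normalized to 5.8 microM ADEP and DMSO/no-enzyme controls.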
The depositor's hits bear a star; ? = inconclusive. Potency means the concentration at half of the fitted maximal effect. An excerpt, so the mix of outcomes need not match the whole.

SMILES	PINK1 modulator	ClpP mod
CCNC(=O)c1cnc2sc(N3CCC(C)CC3)nn2c1=O	1.3%	4.4%
Cc1cn2c(=O)cc(COC(=O)c3ccccc3F)nc2s1	0.9%	-6.8%
Cc1ccc(NC(=O)CSc2nc3ccc(Br)cc3[nH]2)c(C)c1	1.8%	-1.0%
CCCc1cc(=O)[nH]c(SCc2nc(-c3ccccc3)no2)n1	2.2%	1.2%
Cc1cccc(C)c1-n1nnnc1-c1nc2cc3ccccc3cc2[nH]c1=O	-0.4%	0.5%
O=C(c1ccccc1F)N1CCC(c2nc3c(nnn3Cc3cccc(F)c3)c(=O)[nH]2)CC1	1.4%	0.3%
COC(=O)c1cc2sc(C)cc2n1Cc1nc(-c2cccc(Br)c2)oc1C	0.3%	-5.9%
CCNc1nc(NCc2ccc(F)cc2)c2cnn(C)c2n1	2.8%	?
CCN1C(=O)c2ccccc2Sc2ccc(NC(=O)N3CCN(c4cc(C)ccc4C)CC3)cc21	4.8%	-0.8%
COc1ccc(C(=O)NNc2ncnc3c2cnn3-c2ccc(C)cc2C)cc1	2.7%	-5.5%
CC(=O)c1ccc(NC(=O)CCCSc2nc(-c3ccco3)cc(C(F)(F)F)n2)cc1	1.7%	-19%
CCc1ccc2oc(-c3ccc(NC(=O)c4cc(OC)c(OC)c(OC)c4)cc3)nc2c1	1.1%	4.5%
Cc1cccc(OCC(=O)Nc2ccccc2OCc2cc(=O)n3ccccc3n2)c1	?	-15%
Cc1nn(-c2ccccc2)c2c1N(CC(=O)NCc1ccc(N(C)C)cc1)C(=O)CS2	0.2%	-2.1%
CCOc1ccc(CNC(=O)c2cc(-c3ccc(Cl)s3)nc3ccccc23)cc1	-0.4%	?
COc1ccc(NC(=O)c2cccc3c(=O)c4c([nH]c23)CCCC4)cc1	1.5%	1.1%
O=C(C[n+]1cccc(Cl)c1)c1ccc(F)cc1	0.1%	-2.4%
COc1ccc(C2=C(N3CCN(c4cc(C)ccc4C)CC3)c3ccccc3C2=O)cc1	-0.4%	1.4%
COc1ccc(C(=O)Nc2cccc(-c3nc4cccnc4s3)c2C)c(OC)c1	0.4%	2.3%
CCOc1ccccc1N(C)C(=O)C1CCCN(c2ncnc3onc(-c4ccc(F)cc4)c23)C1 (stereo not given)	-0.2%	0.6%
CCOc1ccccc1CNC(=O)C1CCN(S(=O)(=O)c2cccc3nonc23)CC1	4.6%	1.0%
CC1=C(C(=O)Nc2ccc(C)cc2C)C(c2ccc(C(C)C)cc2)n2nc(C(F)(F)F)nc2N1 (stereo not given)	2.6%	-0.9%
Cc1cccc(Cn2c(=O)n(-c3ccc(Cl)c(Cl)c3)c(=O)c3c(C)c(C)sc32)c1	-0.3%	1.8%
Cn1c(=O)c2c(nc(Oc3ccccc3Cl)n2Cc2ccc(C#N)cc2)n(C)c1=O	0.6%	-2.9%
COCCNC(=O)Cn1nc(N2CCN(c3ccccc3OC)CC2)ccc1=O	0.7%	1.9%
Cc1ccc(NC(=O)Cn2nc(-c3ccccc3)nc(Cc3ccc(Cl)cc3)c2=O)cc1	0.6%	1.9%
Clc1ccc(Cn2cc3c(n2)-c2cc4ccccc4n2C3)cc1	0.5%	?
Cc1cc[n+](C)c2ccccc12	1.6%	-3.5%
CCCn1c(=N)c(C(=O)NCc2cccnc2)cc2c(=O)n3cc(C)ccc3nc21	5.7%	3.7%
CCCN(CCC)c1ccc(/C=C/c2sc3ccccc3[n+]2CCCCI)cc1	14µM*	1.5%
COC(=O)c1cc2oc3ccccc3c2n1CC(=O)Nc1cc(OC)cc(OC)c1	2.4%	?
CCc1c(CN2CCN(c3ccccc3F)CC2)csc1C	6.6%	1.9%
CCOc1ccc(-n2c(SCC(=O)N3CCc4ccccc43)nc3c([nH]c4ccccc43)c2=O)cc1	-4.6%	-2.2%
Cc1cccc(OCC(=O)Nc2ccccc2C(=O)OCc2cc(=O)n3nc(C4CC4)sc3n2)c1	-1.1%	-4.2%
CC1=C(C(=O)Nc2ccc(C)cc2C)C(C(C)C)n2nc(SCc3ccccc3Cl)nc2N1 (stereo not given)	2.2%	-1.0%
Cc1cc(F)ccc1NC(=O)c1c(C)oc2c1C1=NCCN1C=N2	4.1%	-2.2%
O=c1c(N2CCN(c3ccccc3)CC2)csc2ccc(Cl)cc12	0.4%	?
CC1=C(C(=O)Nc2cccc(C(F)(F)F)c2)C(c2ccccc2)n2ncnc2N1 (stereo not given)	-4.7%	-2.0%
CCOC(=O)c1ccc(N2CCN(c3cc(C)ccc3C)CC2)c(NC(=O)Nc2ccc(Cl)cc2)c1	3.0%	?
O=C(CBr)c1ccc(Oc2ccc(C(=O)C[n+]3ccccc3Cl)cc2)cc1	1.2%	-26%

Part of the list above, with bars between the fields.
Structure | PINK1 modulator | ClpP mod
CCOC(=O)c1ccc(N2CCN(c3cc(C)ccc3C)CC2)c(NC(=O)Nc2ccc(Cl)cc2)c1 | 3.0% | ?
Cc1cccc(Cn2c(=O)n(-c3ccc(Cl)c(Cl)c3)c(=O)c3c(C)c(C)sc32)c1 | -0.3% | 1.8%
COCCNC(=O)Cn1nc(N2CCN(c3ccccc3OC)CC2)ccc1=O | 0.7% | 1.9%
Cc1cccc(OCC(=O)Nc2ccccc2C(=O)OCc2cc(=O)n3nc(C4CC4)sc3n2)c1 | -1.1% | -4.2%

Next section
SMILES	PINK1 modulator	ClpP mod
CS(=O)(=O)N1CCC(N2CCN(Cc3ccccc3)C(=O)C2=O)CC1	2.2%	-3.7%
CCOC(=O)Cn1cc2c(c1-c1ccc(Cl)cc1)c(=O)n(C)c(=O)n2C	-0.2%	3.7%
O=c1c2oc3ccccc3c2n(Cc2ccccc2Cl)c(=O)n1Cc1ccco1	-1.3%	-7.3%
Cc1cccc(-c2nc(SCC(=O)NCc3ccco3)c3c(=O)n(C)c(=O)n(C)c3n2)c1	1.8%	-0.8%
Cc1ccc(CNC(=O)c2ccc(-c3nc(CS(=O)c4ccccc4)c(C)o3)cc2)cc1 (stereo not given)	19%	-10%
Cn1c(CCNC(=O)c2ccco2)nc2cc(NC(=O)COc3ccc(Cl)cc3)ccc21	16%	-2.8%
Cc1ccc(-n2ncc(C(=O)Nc3ccc(C)c(F)c3)c2C2CCN(C(=O)OC(C)(C)C)CC2)cc1C	0.0%	-1.2%
Nc1ccn([C@@H]2O[C@H](C(=O)N3CCN(Cc4ccccn4)CC3)[C@@H](O)[C@H]2O)c(=O)n1	1.5%	-0.7%
CCCNC(=O)c1cc2nc(-c3ccc(Br)cc3)cc(C(F)(F)F)n2n1	6.7%	0.5%
N#Cc1ccccc1Cn1c(=O)n(-c2ccc(F)c(Cl)c2)c(=O)c2sccc21	-0.3%	-0.5%
Cc1nc2nc[nH]n2c(=O)c1NS(=O)(=O)c1ccc(Br)cc1	0.3%	-2.7%
CCOc1ccc(CCN2C(=O)C(=O)N([C@@H](CC(C)C)CN3CCC[C@H]3CN3C(=O)C(=O)NC[C@@H]3CC(C)C)C[C@@H]2CC(C)C)cc1	0.3%	3.1%
CCCNC(=O)c1cc2c(c(-c3cccc(-c4ccccc4F)c3)n1)[C@@H](CCO)N(C(=O)CC1CC1)C2	2.2%	1.0%
CC(=O)Nc1ccc(S(=O)(=O)O)c2cc(S(=O)(=O)O)c(N=Nc3ccc(N=Nc4ccc(S(=O)(=O)O)cc4)c4ccc(S(=O)(=O)O)cc34)c(O)c12	-0.2%	0.4%
Clc1ccc2c(c1)-n1cc(-c3ccccc3)nc1CO2	2.5%	-2.9%
Cc1nn(-c2ccc(N3CCCCC3)nn2)c(C)c1CCC(=O)NCc1ccccc1F	-0.1%	-4.1%
Cc1noc2ncnc(NCc3ccc(Cl)cc3)c12	0.8%	0.3%
CCN(CC)C(=O)Cn1cc(SCC(=O)Nc2ccccc2F)c2ccccc21	1.1%	2.0%
CCOc1ccccc1CNC(=O)CCc1cn(Cc2ccc(Cl)cc2)c2ccccc12	0.3%	-12%
Cc1nc(N2CCCC2)ncc1C(=O)NCc1ccc(F)cc1	-0.1%	-11%
COCCN1C(=O)CCC1(C)c1nnnn1-c1c(C)cccc1C (stereo not given)	1.6%	-1.3%
CCC(c1nnnn1-c1ccc2c(c1)OCCO2)N1CCN(c2ccc(OC)cc2)CC1 (stereo not given)	-0.5%	-5.0%
COc1ccc(CNc2ncnc3c2nc2n3CCCC2)cc1	5.9%	-5.2%
Cc1ccc(C)c(NC(=O)Cn2c(=O)n(CCC(=O)NCc3ccc4c(c3)OCO4)c(=O)c3ccccc32)c1	-0.5%	0.5%
Cc1ccc(NC(=O)Cn2c(=O)n(Cc3nc(C)no3)c(=O)c3ccccc32)c(Cl)c1	0.0%	-0.9%
O=C(Cn1cc(S(=O)(=O)c2ccccc2)c(=O)c2cc(Cl)ccc21)Nc1ccc2c(c1)OCO2	0.1%	13%
COc1ccc(C2=NS(=O)(=O)N(C)C(C(=O)Nc3ccc(OC(F)(F)F)cc3)=C2)cc1	?	-3.8%
Cc1cccc(NC(=O)C2CCCN(c3nnc(-n4c(C)ccc4C)s3)C2)c1C (stereo not given)	1.3%	-1.4%
Cc1ccc2nc3c(c(Nc4ccc(C)c(C)c4)c2c1)CCC3	?	-5.9%
CN(C)S(=O)(=O)c1ccc2c(c1)N(CC(=O)NCc1cccc(Br)c1)C(=O)CS2	3.8%	1.0%
CCOC(=O)c1[nH]c2ccccc2c1NC(=O)c1ccccc1OC	0.9%	0.4%
COc1ccccc1NC(=O)c1sc2nc3c(cc2c1N)CCCCCC3	1.6%	4.5%
Cc1ccc(Cc2cn3cc(-c4ccc(F)cc4)nc3s2)cc1	5.2%	1.2%
Cc1nc(SCc2ccccc2Cl)c(C#N)c(C)c1C	-0.3%	1.7%
CCc1ccc(-n2nc3ccc(NC(=O)COc4ccc(OC)cc4)cc3n2)cc1	0.9%	4.1%
Cc1ccc(S(=O)(=O)c2cn(Cc3ccccc3)c3cc(N4CCCC4)c(F)cc3c2=O)cc1	-1.3%	?
Cc1cccc(C)c1NC(=O)Cn1cc(C(=O)c2ccco2)c2ccccc21	-1.0%	-27%
Cc1cc(C)cc(Cn2cc(CN3CC(N4CCCCC4)CS3(=O)=O)nn2)c1 (stereo not given)	-0.3%	-0.3%
Cc1cccn2c(=O)c(/C=C(\C#N)c3nc4ccccc4s3)c(Oc3ccc(Br)cc3)nc12	4.0%	?
COc1ccc(CNC(=O)c2cc(=O)[nH]c3ccc(S(=O)(=O)N4CCCC4)cc23)c(OC)c1	1.8%	-0.6%
COc1ccc(OC)c(CNC(=O)c2ccc(Sc3ccc(Cl)cc3)c(NC(C)=O)c2)c1	0.0%	-22%
CCOC(=O)c1ccc(NC(=O)CSc2nccn2-c2cc(C)cc(C)c2)cc1	-3.3%	-0.9%
COC(=O)c1c(-c2cccs2)csc1NC(=O)c1ccc(OC)c(OC)c1	-0.6%	?
COc1ccc(CCNC(=O)Cn2cc(S(=O)(=O)Cc3ccccc3F)c3ccccc32)cc1OC	-1.5%	0.1%
CCNC(=O)C1CCN(c2nc3ccccc3nc2C(F)(F)F)CC1	0.6%	1.3%
CN(C)c1ccc(CN(CC2CCCO2)C(=O)c2ccc(Br)cc2)cc1 (stereo not given)	0.6%	0.5%
CCn1nc(C)c2c(-c3ccccc3)cc(=O)n(C(C)C(=O)NCc3cccc(OC)c3)c21 (stereo not given)	0.0%	4.4%
COc1ccccc1NC(=O)Cn1cnc2ccc(S(=O)(=O)N3CCC(C)CC3)cc2c1=O	0.8%	-3.4%
CCc1cccc(NC(=O)C2CCN(S(=O)(=O)c3cccc(-c4noc(C)n4)c3)CC2)c1	-0.1%	1.5%
Cc1ccc(-n2c(=O)c3c(cnn3C)n(CC(=O)Nc3ccccc3C)c2=O)cc1	1.6%	-0.7%
Cc1ccc(CN(C(=O)COc2ccc(C(C)(C)C)cc2)C2CCS(=O)(=O)C2)o1 (stereo not given)	0.4%	-1.0%
CCC(CO)NC(=O)C(=O)Nc1c2c(nn1-c1ccc(F)cc1)CSC2 (stereo not given)	0.6%	-0.5%
COc1cc2c(cc1OC)C(COc1ccc(C(C)C)cc1)N(C(=O)c1ccc(S(=O)(=O)N3CCCC3)cc1)CC2 (stereo not given)	-3.9%	-3.2%
CNC(=O)c1ccc2nc(-c3ccccc3)c(-c3ccccc3)nc2c1	1.9%	4.5%
Cc1ccc(S(=O)(=O)N2CCN(c3nc(C(N)=O)nc4ccccc34)CC2)cc1	-0.4%	-1.9%
Cc1ccc(-c2noc(-c3ccccc3OCC(=O)Nc3ccccc3[N+](=O)[O-])n2)cc1	-1.1%	-1.8%

Sorted by number of heavy atoms (rising): part of the list above
SMILES	PINK1 modulator	ClpP mod
COC(=O)c1c(-c2cccs2)csc1NC(=O)c1ccc(OC)c(OC)c1	-0.6%	?
Cc1ccc(-n2c(=O)c3c(cnn3C)n(CC(=O)Nc3ccccc3C)c2=O)cc1	1.6%	-0.7%
Cc1ccc(-c2noc(-c3ccccc3OCC(=O)Nc3ccccc3[N+](=O)[O-])n2)cc1	-1.1%	-1.8%

Screening data (PubChem)
